2A StopGo: FMDV 2A StopGo reporter, luciferase signal; human cells with a luciferase reporter of 2A StopGo recoding; control for the full effect not named in the record; 410,000 compounds, 1.2% hits; Potency, µM (highest dose often 57.9 µM), without a hit: at the top dose signal change, negative = less light; active = well fitted falling curve with a large enough effect; inconclusive = small, poorly fitted or top-dose-only effect; inactive = no such curve, though single readings can be large or run the other way; tested in HEK293T cells; note: % is set by controls: 0 for no effect and ±100 for the full control effect; nearly all actives have a fitted effect of over 45% in size; luciferase light after 4 h
Cruzain inh Det: cruzain (T. cruzi) inhibition with detergent. P25779. purified cruzain, Z-FR-AMC fluorescence, 0.01% Triton. Potency, µM, inactives show max response, negative = inhibition, usual class: inhibitors. 200,000 compounds, 0.43% hits. AID 1478;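 note: plate controls were neutral wells for no effect and buffer without enzyme for full effect; nearly all actives have a fitted effect of over 40% in size; top concentration of the series not given in the record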
Target sequence (P25779 123-467 limits assumed): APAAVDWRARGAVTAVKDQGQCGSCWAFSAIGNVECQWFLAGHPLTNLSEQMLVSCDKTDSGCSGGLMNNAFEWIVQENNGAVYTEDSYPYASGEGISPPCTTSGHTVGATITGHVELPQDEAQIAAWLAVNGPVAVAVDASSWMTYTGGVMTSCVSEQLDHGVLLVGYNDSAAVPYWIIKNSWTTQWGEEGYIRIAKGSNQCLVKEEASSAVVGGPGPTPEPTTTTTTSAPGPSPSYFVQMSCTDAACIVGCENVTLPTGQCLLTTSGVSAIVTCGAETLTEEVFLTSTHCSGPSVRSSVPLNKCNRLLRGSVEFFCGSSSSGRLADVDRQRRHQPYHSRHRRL
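Detergent-containing arm of a paired screen for aggregation-based inhibition: 0.01% Triton X-100 present. Cruzain at 1.5 nM cleaved 2 uM Z-FR-AMC at pH 5.5 with 5 mM DTT; AMC fluorescence gain over 60 s measured activity.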
RE007 growth inh: less growth of the S. pombe RE007 Vpr strain; S. pombe RE007 Vpr strain, BacTiter-Glo ATP luminescence, 24 h; control for the full effect not named in the record; 360,000 compounds, 0.21% hits; Potency, µM (highest dose often 92.2 µM), for the others: top-dose activity change, negative = less growth; AID 651644; active = well fitted falling curve with a large enough effect; inconclusive = small, poorly fitted or top-dose-only effect; inactive = no such curve, though single readings can be large or run the other way;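 note: % is set by controls: 0 for no effect and ±100 for the full control effect; nearly all actives have a fitted effect of over 50% in size; the assay follows cell death caused by Vpr and the record does not say whether a fall means rescue or toxicity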
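Fission yeast RE007 carrying one integrated HIV-1 vpr copy, seeded at OD 0.01 in PMG+AL medium with 23 nL pinned compound. Grown 24 h at 30 degrees; viability read by BacTiter-Glo luminescence after 5 min.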
Marburg entry inh: Marburg virus entry inhibition; Marburg virus pseudotyped entry inhibition, cell reporter; control for the full effect not named in the record; about a third of the inactives were read at about 46 µM; Potency, µM (titrated, usually from 37.8 µM), without a hit: at the top dose activity change, negative = inhibition, hits mostly inhibitors; 300,000 compounds, 1.8% hits; active = well fitted inhibition curve with a large enough effect; inconclusive = small, poorly fitted or top-dose-only effect, or effect the other way; inactive = flat fitted curve, though single readings scatter; tested in HEK293 cells; about a fifth of its hits are not listed in these tables; note: % is set by controls: 0 for no effect and ±100 for the full control effect; luciferase read-out
Lassa entry inh: blocks Lassa virus binding to or entry into cells; Lassa virus pseudotype entry inhibition, cell reporter; control for the full effect not named in the record; Potency, µM (doses to about 37.9 µM), without a hit: top-dose activity change, negative = inhibition, actives largely listed as inhibitors; 300,000 compounds, 1.2% hits; active means well fitted inhibition curve with a large enough effect; inconclusive means small, poorly fitted or top-dose-only effect, or effect the other way; inactive means flat fitted curve, though single readings scatter; tested in HEK293 cells; note: % is set by controls: 0 for no effect and ±100 for the full control effect; nearly all actives have a fitted effect of over 50% in size; luciferase read-out
NS1 function inh: inhibitors of influenza NS1 protein function. Potency, µM (doses to about 46.1 µM), without a hit: at the highest dose activity, positive = more growth. 270,000 compounds, 0.4% hits. S. cerevisiae slowed by influenza A NS1, growth recovery by OD600; active means well fitted rising curve with a large enough effect; inconclusive means small, poorly fitted or top-dose-only effect; inactive means no such curve, though single readings can be large or run the other way; note: nearly all actives have a fitted effect of over 50% in size
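OD600 was taken as the measure of yeast growth restored by compound in an NS1-expressing S. cerevisiae strain. Cells had been washed out of glucose medium and diluted 1:100 into galactose -URA medium, pH 6.0.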
SARS PLP yeast: blocks SARS-CoV papain-like protease in a yeast assay; 330,000 compounds, 0.19% hits; Potency, µM (highest dose often 32.9 µM), without a hit: at the highest dose activity, positive = growth rescue; AID 485353; S. cerevisiae expressing SARS-CoV PLpro, growth rescue; control for the full effect not named in the record; active means well fitted rising curve with a large enough effect; inconclusive means small, poorly fitted or top-dose-only effect; inactive means no such curve, though single readings can be large or run the other way; note: 0% is about no effect; nearly all actives have a fitted effect of over 55% in size; growth read by luminescence after 48 h
Cruzain noTriton: blocks cruzain activity in detergent-free assay. Potency, µM, for the others: max response, negative = inhibition, usual class: inhibitors. purified cruzain, Z-FR-AMC fluorescence, no detergent. P25779. AID 1476. 200,000 compounds, 2.3% hits;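 note: plate controls were enzyme without inhibitor for no effect and buffer without enzyme for full effect; nearly all actives have a fitted effect of over 40% in size; top concentration of the series not given in the record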
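Purified cruzain at 1.5 nM, pre-incubated 15 min with compound at room temperature in 100 mM sodium acetate pH 5.5, 5 mM DTT, 0.00005% Triton X-100. Reaction started with 2 uM Z-FR-AMC; AMC fluorescence increase over 60 s gives rate.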
* hit, by the source's call; ? = inconclusive; nt = no result given; & = joins results of further samples; [ ] = dose if it differs, or a comment. Unless noted, calls come from the whole dose curve; as a rule, active = well fitted curve in the direction sought with a large enough effect; inconclusive = small, poorly fitted or top-dose-only effect, or another doubt; inactive = no such curve, though single readings can be large; an effect the other way counts as inactive or inconclusive. Potency is the fitted concentration of half-maximal effect.

SMILES | 2A StopGo | Cruzain inh Det | RE007 growth inh | Marburg entry inh | Lassa entry inh | NS1 function inh | SARS PLP yeast | Cruzain noTriton
S=c1nc2ccccc2c2nc(-c3ccccc3)[nH]n12 | -24% | 6.8% | 3% | -24% | 14% | -31% | 15% | -6%
Cc1cc(C(=O)Nc2ccc(F)cc2C)cs1 | 0% | nt | -13% | nt | nt | -5% | 1% | nt
CN(C)c1ccc(P(=O)(OC2CCCCC2)C(O)c2ccccn2)cc1 (stereo not given) | 11% | nt | -9% | nt | nt | -4% | -1% | nt
CC(=O)Nc1ccc(S(=O)(=O)NCCc2ccccn2)cc1 | -5% | nt | -3% | -6% | 1% | nt | -1% | nt
Cc1ccc2nc3ccc(N4CCN(C)CC4)nn3c(=O)c2c1 | -11% | -1.9% | 7% | -30% | -29% | -1% | -3% | -4%
O=C1CCCC2=C1C(c1ccc(Br)cc1)c1c([nH]c(=S)[nH]c1=O)N2 (stereo not given) | -6% | 18µM* | 36% | 11% | 1% | 6.3µM* | 9% | 16µM*
O=C(Nc1ccc(C(=O)N2CCCc3ccccc32)cc1)c1cccs1 | -5% | nt | 4% | 11µM* | -27%[46.1 µM] | -12% | -6% | nt
OCCCc1nc2ccccc2n1Cc1ccccc1 | -18% | nt | 3% | nt | nt | 12% | 0% | nt
CCCCCc1nc2sc3c(c2c(=O)n1N)CCC3 | -3% | 0.4% | -11% | -1% | 16% | 4% | -19% | -14%
CCc1ccccc1N(C(=O)Cn1nnc2ccccc21)C(C(=O)NCCOC)c1ccco1 (stereo not given) | 32%[activator] | 2.2% | 0% | -8% | -29% | -9% | 1% | 6%
Cc1cc(C)c2cc(C(=O)N3CCN(c4ncccc4C(F)(F)F)CC3)[nH]c2c1 | -10% | nt | 2% | ? | -17%[46.1 µM] | -8% | -2% | nt
COc1ccc(C(=O)Nc2nncs2)c(OC)c1 | 66%[activator] | -2.3% | -1% | 14% | ? | -6% | 15% | -6%
Cc1cc(NC(=O)COn2nnc3ccccc32)no1 | -7% | 3.8% | 0% | 37% | 7% | -12% | -1% | 11%
Cc1cc(OCC(=O)NC(C)C)cc(C)c1Br | 3% | -1.8% | ? | -20% | -7% | -13% | -31% | 8%
O=C(NCC1(N2CCCCC2)CCCCC1)C1CC(=O)N(c2ccc3c(c2)OCCO3)C1 (stereo not given) | -13% | nt | 6% | -15% | -13% | nt | -4% | nt
Cn1c(=O)[nH]c2ncccc21 | -6% | nt | 23% | nt | nt | -1% | -2% | nt
COc1ccc(C=C(C#N)c2ccc(OC)cc2)cc1 | 14% | nt | 5% | 7.9µM* | ? | nt | nt | nt
CC1(c2ccc(OC(F)F)cc2)NC(=O)N(CC(=O)Nc2ccc3c(c2)OCO3)C1=O (stereo not given) | -24% | -5.6% | 1% | 2%&6% | -8% | 7% | 1% | 8%
COc1ccc2[nH]c(=O)c(CNc3cc(C)ccc3C)cc2c1 | ? | nt | 3% | ? | ? | -1% | 0% | nt
Cc1ccc(NC(=O)/C=C\C(=O)NCC(=O)O)cc1 | -7% | nt | ? | nt | nt | 0% | -6% | nt
CCCc1[nH]n(-c2nc3ccccc3s2)c(=O)c1C=NCC1CCCO1 (stereo not given) | 11% | -4.4% | -13% | 24% | ? | -33% | 4% | 23%
CC(=O)c1cccc(OCc2cc(C(=O)NCc3nc(C)c(C)s3)no2)c1 | 14% | nt | 13% | 5% | -4% | -12% | -3% | nt
CCc1cc(C(=O)N2CCCC(CNC(=O)c3ccc(-c4ccccc4)cc3)C2)no1 (stereo not given) | 0% | nt | -9% | ? | ? | -4% | -1% | nt
COc1ccccc1-n1ccnc(SCC(=O)NCCc2ccccc2)c1=O | -11% | nt | -12% | 12% | 3% | nt | -2% | nt
O=C1COc2c1ccc(O)c2O | 0% | nt | 5% | ? | -3%[46.1 µM] | nt | nt | nt
COc1ccc(Cn2c(C(=O)O)c(CNCc3cccs3)c3ccc(C)cc32)cc1 | 6% | -7.2% | nt | nt | ? | nt | nt | 7%
Cn1c(SCc2cccc(F)c2)nc2c([nH]c3ccccc32)c1=O | 0% | 0.2% | nt | nt | -3%[46.1 µM] | nt | nt | -6%
Cc1cc(C(=O)CN2C(=O)CCC2=O)c(C)n1Cc1ccccc1 | ? | 1.0% | 13% | -5% | -20% | -6% | -12% | -22%
Cc1ccc(Cl)cc1NC(=O)COC(=O)C12CC3CC(CC(C3)C1)C2 | 0%&-28% | -2.1%&-7.0% | 5% | -5%&8% | -27%&-1% | 1%&-4% | -31% | 6%&0%
Cn1nnnc1SCC(=O)NNC(=O)c1ccc(F)cc1 | -4% | nt | -8% | -19% | 21% | 4% | -2% | nt
CC(C)NC(=O)c1cc(-c2cccs2)nc2ccccc12 | -20% | nt | 17% | nt | nt | 0% | 1% | nt
CC1CCN(C(=O)CSc2nnc(-c3cccnc3)o2)CC1 | 7% | nt | 2% | 21%[46.1 µM] | 17%[46.1 µM] | 0% | -2% | nt
Nc1nnc(CSCc2ccccc2)s1 | -3% | 2.9% | -5% | 14% | -3% | 0% | -1% | -3%
CC(C)CN(C(=O)CSc1nnc2c(Cl)cc(C(F)(F)F)cn12)C1CCS(=O)(=O)C1 (stereo not given) | -3% | 2.4% | -9% | ? | 7% | 0% | 7% | 7%
NS(=O)(=O)c1cc2c(cc1Cl)NC(C(Cl)Cl)NS2(=O)=O (stereo not given) | -20%&-2% | -1.3%&-0.8% | -2% | -13%&-13%&-13% | 3% | 6% | 2% | 4%&10%
CC(=O)Nc1ccc(Nc2nc3ccc(C)cc3n3nnnc23)cc1 | -12% | -4.9% | nt | nt | ? | nt | nt | 17%
COc1ccccc1CNC(=O)C(=O)NCC(c1ccco1)S(=O)(=O)c1ccc(F)cc1 (stereo not given) | ? | -2.4% | nt | nt | -18%[46.1 µM] | nt | nt | -14%
O=c1c2ccccc2nc(-c2ccc(Cl)cc2)n1CCCCOc1ccc(F)cc1 | -10% | -2.3% | nt | 19%[46.1 µM] | 1%[46.1 µM] | nt | nt | -5%
Cc1sc2nc(COC(=O)c3c(F)cccc3F)[nH]c(=O)c2c1C | 55%[activator] | nt | -9% | 5%[46.1 µM] | -10% | nt | -1% | nt
Cc1ccnc2nc(NC(=O)c3ccccc3Cl)nn12 | 8% | 1.6% | nt | 2%[46.1 µM] | -2%[46.1 µM] | nt | nt | -23%
O=C1c2cccc3cccc(c23)C(=O)N1OS(=O)(=O)c1ccc(Cl)cc1 | -14% | -16% | -20% | 2% | ? | 7% | -14% | -7%
COc1cc2cc(C(=O)N3CCC(Cc4ccccc4)CC3)[nH]c2cc1OC | -17% | nt | 10% | nt | nt | 3% | 0% | nt
Cc1ccc(NC(=O)CN2C(=O)c3cccnc3Sc3ccccc32)c(Br)c1 | 5% | -7.3% | nt | ? | 13%[46.1 µM] | nt | nt | 29%
Cc1cc(C)n2nc(-c3ccc(Cl)cc3)nc2n1 | 54%[activator] | 0.1% | nt | ? | -5%[46.1 µM] | nt | nt | 8%
O=C(/C=C/c1ccccc1)CC(O)(c1ccccc1)C(F)(F)C(F)F (stereo not given) | nt | -1.9% | -13% | ? | ? | -123% | -22% | 1%
O=C1/C(=C/c2ccco2)CCC1C1CCCC1 (stereo not given) | 32%[activator] | nt | 3% | 2%[46.1 µM] | ? | nt | -7% | nt
S=C(Nc1ccccc1)N1CCCN1c1ccccc1 | -6% | nt | 11% | nt | nt | 2% | -1% | nt
COc1ccc2oc(C(=O)OCC(=O)N(CC(C)C)c3c(N)n(Cc4ccccc4)c(=O)[nH]c3=O)c(C)c2c1 | -8% | nt | 13% | -4% | 0% | nt | 3% | nt
Nc1nc2cc(Br)ccc2o1 | 15% | nt | -21% | 6% | 17% | nt | nt | nt
C/C(=N\NC(=O)c1ccccc1Br)c1ccc(N2CCOCC2)cc1 | 15% | nt | 14% | ? | -12%[46.1 µM] | nt | 15% | nt
CCC(C)NC(=O)CN(c1ccc(OC)cc1)S(=O)(=O)c1ccccc1 (stereo not given) | -5% | nt | -6% | nt | 18% | -2% | -1% | nt
C/C(=N/NC(=O)c1ccccn1)c1ccncc1 | 48%[activator] | nt | -9% | ? | 6% | 0% | -1% | nt
COc1ccccc1-n1c(O)c(C=Nc2c(C)n(C)n(-c3ccccc3)c2=O)c(=O)[nH]c1=O | nt | -0.9% | 10% | 13% | 6% | 9% | 0% | 0%
CC(OC(=O)c1ccc(CN2CCCC2=O)cc1)C(=O)Nc1ccc(Cl)cc1 (stereo not given) | -22% | nt | 3% | -23% | -14% | nt | -1% | nt
O=C(N/N=C/c1cccs1)c1cccc(NC(=O)c2ccccc2Cl)c1 | 33%[activator] | -4.5% | 9% | 4%[46.1 µM] | 16% | 29% | 3% | -10%
Cc1ccc(NC(=O)CN2C(=O)NC3(CCCCC3)C2=O)cc1S(=O)(=O)N1CCOCC1 | -22% | nt | 8% | 10% | -1%[46.1 µM] | nt | -6% | nt
Cc1nc2ccc(S(=O)(=O)N3CCCCC3)cc2s1 | 10% | nt | 11% | 18%[46.1 µM] | 9%[46.1 µM] | 1% | -1% | nt
Cc1ccc(-n2nc3cc(Cl)c(NC(=O)c4ccco4)cc3n2)cc1 | 58%[activator] | -0.9% | -6% | ? | ? | -1% | 9% | 14%
Cc1cccc(OCCc2nnc(N)s2)c1C | 30% | -2.1% | 18% | 29% | 11% | -11% | 1% | -5%

Gathered by group, the compounds so far with a CF3 group
SMILES | 2A StopGo | Cruzain inh Det | RE007 growth inh | Marburg entry inh | Lassa entry inh | NS1 function inh | SARS PLP yeast | Cruzain noTriton
Cc1cc(C)c2cc(C(=O)N3CCN(c4ncccc4C(F)(F)F)CC3)[nH]c2c1 | -10% | nt | 2% | ? | -17%[46.1 µM] | -8% | -2% | nt
CC(C)CN(C(=O)CSc1nnc2c(Cl)cc(C(F)(F)F)cn12)C1CCS(=O)(=O)C1 (stereo not given) | -3% | 2.4% | -9% | ? | 7% | 0% | 7% | 7%
